Autofluor counter: compound fluorescence in toxin protease inhibitor counterscreen; compound autofluorescence counterscreen, microsphere flow cytometry; stronger effect = higher value; fluorescence intensity (concentration not given with the values); hit rate 3.1% among 360,000; AID 624483;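 active means at least 3 SD above the mean of all compounds, about 16000 in these data; inconclusive means too few beads counted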;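 further: 100 nL of 1 mM stock went into each well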
BJeLR viability: MLPCN primary cell-based screen for lethality selective to Ras in HRASV12 cells. inhibition, % (no concentration beside the values). hit rate 0.17% among 300,000. BJeLR (HRASV12) viability, CellTiter-Glo ATP luminescence, 48 h; reference of the scale not given here;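 active means replicate mean above 50%; inconclusive means above 50% but judged a plate artefact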;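 further: 50 nL library stock added to about 25 µL; numbers are from one replicate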
ugtP null kill: growth inhibition of ugtP-null S. aureus, primary screen, RN4220 ugtP deletion, OD600; 16 h; some inactives read as strong as hits; growth inhibition, % (concentration not given with the values); AID 1259309, 2017; hit rate 0.54% among 330,000;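 active means z-score under -3 and OD600 up to 0.15 on both plates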;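 further: plate controls were untreated wells for no effect and antibiotic for full effect; wells of about 80 µL received 100 nL stock; the first replicate is given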
RN4220 kill: growth inhibition of S. aureus RN4220, primary screen, OD600; hit rate 0.33% among 330,000; 16 h; inhibition, % (no concentration beside the values); AID 1259311, 2017;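 active means z-score of -3 or lower and OD600 up to 0.18 on both plates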;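 further: plate controls were untreated cells for no effect and reference antibiotic for full effect; stock transfer was 100 nL into about 80 µL; one replicate is shown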
Mtb hypoxia rep: PubChem AID 1159583. M. tuberculosis hypoxia-regulated fluorescent reporter, fluorescence. fluorescence inhibition, % (test concentration not listed). hit rate 0.1% among 300,000;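 active means 35 to 45% if threefold the growth effect, above 45% if 1.5-fold the growth effect; inactive means the rest, general growth blockers included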;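 further: wells of about 50 µL received 100 nL stock; 0% = vehicle wells and 100% = reference inhibitor wells; whole bacteria with a GFP reporter of the hypoxia response; strong numbers were not always called active; many hits fall short of the cut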
PrP UTR inh: inhibition of PrP 5' UTR reporter expression; AID 488862, 2010; cell-based PrP 5' UTR mRNA reporter, plate reader; inhibition, % (no concentration beside the values); hit rate 0.35% among 340,000;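 active means every replicate at 50% or more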;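 further: 0 = median of the neutral control wells; tested in H4 reporter cells; numbers are from one replicate; inactives centre near -14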
Mtb hypoxia rep growth: also measured in Mtb hypoxia rep; calls as there; growth inhibition, %; measured here: M. tuberculosis growth (absorbance);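 0% = vehicle and 100% = reference antibiotic; read after six days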
* marks the source's active call; other numbers are inactive results; ? = inconclusive; · = no result given. Not a hit list; about 4% have a hit in one of these screens.

SMILES	Autofluor counter	BJeLR viability	ugtP null kill	RN4220 kill	Mtb hypoxia rep	Mtb hypoxia rep growth	PrP UTR inh
CCn1c(SCC(=O)Nc2ccc(C(C)=O)cc2)nc2c([nH]c3ccccc32)c1=O	5324	-4	-15	4.0	6	2	-10
CC1CC(C)CN(S(=O)(=O)c2ccc(C(=O)NCc3ccc4c(c3)OCO4)cc2)C1 (configuration not stated)	6374	13	-4	5.4	0	4	-5
O=C(c1cc2c(s1)CCCC2)N1CCN(c2ccccc2)CC1	4329	-3	1	3.3	8	2	-44
CC(C)NC(=O)c1cc2n(n1)C(C(F)(F)F)CC(c1ccco1)N2 (configuration not stated)	3421	3	-1	2.4	17	9	30
CC1CCCCN1C(=O)c1ccc(COc2ccc([N+](=O)[O-])cc2)o1 (configuration not stated)	2421	-23	1	3.8	19	-3	-13
Nc1c(C(=O)N2CCCC2)sc2nc3c(cc12)CCCCCC3	3715	-5	·	·	·	·	-106
CC/C(=N\NC(=O)Nc1ccccc1)c1c(O)n(Cc2ccccc2)c(=O)[nH]c1=O	4027	-4	10	3.3	10	11	-3
Fc1cccc(CSc2nnc3ccc(-c4ccncc4)nn23)c1	4342	-2	8	4.1	5	9	20
O=C(CSc1nn(-c2ccc(F)cc2)c(=S)s1)N1CCN(C(=O)c2ccco2)CC1	10081	-11	4	-4.8	-10	-7	-19
CC1CCC/C(=N/NC(=O)c2ccccc2-n2cccc2)C1 (configuration not stated)	2505	-9	·	·	·	·	-12
O=c1[nH]c2ccccc2nc1C=C(O)c1cccs1	·	·	-8	15	17	3	·
CC1(C)C2CC[C@]3(C)C(CC=C4[C@@H]5C[C@@](C)(CO)[C@@H](O)C[C@]56C[C@@H](OC6=O)[C@]43C)[C@@]2(C)CC[C@@H]1O (some centres not stated)	5714	-6	-5	3.6	·	·	-8
Cc1oc(S(=O)(=O)N2CCCC2)cc1C(=O)Nc1ccc(F)cc1	5102	2	2	-0.2	10	-1	-61
CC(C(=O)NCc1ccccc1)n1cc([N+](=O)[O-])cn1 (configuration not stated)	3923	-1	5	5.0	0	5	-17
CCCCn1c2ccc(F)cc2c2nnc(NN)nc21	2953	-2	7	-1.2	-4	9	-21
Cc1ccc(-c2cc(-c3ccccc3)c3c(N)c(S(C)(=O)=O)sc3n2)cc1	4374	1	-2	-13	3	12	-10
Clc1ccc(CCC(Cn2ccnc2)Sc2c(Cl)cccc2Cl)cc1 (configuration not stated)	4348	·	98*	99*	·	·	-9
C=CCN(CC=C)C(=O)C1CCC(C(=O)N(CC=C)CC=C)CC1 (configuration not stated)	4686	-4	3	2.5	·	·	-1
Cc1cc(C)c2sc(N(CCCN(C)C)C(=O)c3ccc(S(=O)(=O)N4CCCc5ccccc54)cc3)nc2c1	?	23	·	·	·	·	-17
Cc1cc(C)nc(/N=C(\N)N2CCCCC2)n1	2811	7	·	·	·	·	-7
O=C1CCCc2nc(N3CCN(c4ccccc4)CC3)ncc21	3399	5	7	4.6	5	2	-32
CCN1C2=NCCCN2c2cc(C)c(C)cc21	2679	1	1	4.0	·	·	-11
CN(c1nc2ccccc2n2c(-c3ccco3)nnc12)S(=O)(=O)c1ccccc1	4483	-1	5	2.1	0	-6	-4
Cc1cc(C)c(C#N)c(Oc2ccccc2)n1	4784	3	4	1.7	·	·	-36
Cc1ccccc1NC(=O)c1ccc(N/N=C/c2ccccc2O)c([N+](=O)[O-])c1	2020	2	·	·	·	·	5
CCc1cc2ccccc2nc1SCC(=O)Nc1cc(C)on1	2414	3	-2	1.1	·	·	-3
Cc1ccccc1C(=O)Nc1cccc(C(=O)N/N=C/c2cc(Cl)cc([N+](=O)[O-])c2O)c1	2462	5	·	·	·	·	-8
C[C@@]12C(=O)N(c3cccc(Br)c3)C(=O)N1[C@H](c1ccc(Cl)cc1)[C@@H]1C(=O)N(C3CCCCC3)C(=O)[C@@H]12	3709	12	·	·	·	·	-17
COc1ccc(C(=O)NC2CCSc3ccccc32)cc1F (configuration not stated)	5412	-11	10	1.3	3	-1	-22
CCN(CC)C(=O)c1nn(-c2ccccc2)c2c1C1CCC2(C)C1(C)C (configuration not stated)	4358	3	-2	9.7	-3	0	-9
CC(NC(=O)CCn1c(=S)[nH]c2ccsc2c1=O)c1ccccc1 (configuration not stated)	5163	-7	3	4.9	-5	-8	-5
Cc1cc(C(=O)CSc2nc(N)cc(N)n2)c(C)n1CC1CCCO1 (configuration not stated)	3931	·	0	-1.5	2	5	-33
CCOC(=O)Cc1csc(NS(=O)(=O)c2ccc(F)cc2)n1	2773	3	-1	3.4	·	·	1
CCCCCCCCc1nnc(NC(=O)c2ccco2)s1	7607	10	-3	3.6	2	0	-24
COc1ccc(C(=O)NC(C)c2ccc(-n3ccnc3)cc2)c(OC)c1OC (configuration not stated)	5777	10	4	-1.5	2	4	-20
Cc1ccc(C(C)C)c(OCc2nnc3n2CCCCC3)c1	4102	9	8	2.5	4	12	-5
Cc1cccc(-c2nnc(SC(C)C(=O)N3CCOCC3)o2)c1 (configuration not stated)	5341	-10	4	5.8	11	8	-7
Cc1cccc(NC(=O)CSCC(=O)N2CCN(Cc3ccc4c(c3)OCO4)CC2)c1	4606	-5	20	0.3	-9	-2	-5
C/C(=N/NC(=O)c1ccccc1)c1ccc(NC(=O)C(F)(F)F)cc1	2228	5	·	·	·	·	-36
CCOC(=O)N1CCN(Cc2c(F)cccc2F)CC1	3108	8	3	5.0	4	4	0
CC1(N(O)C=C2C=CC(=O)C=C2)CCCCC1=O (configuration not stated)	4384	-3	11	2.4	0	17	8
CC(C)CN=CC1=C(O)c2ccccc2C1=O	4027	3	-1	0.9	-9	-4	-47
Cc1nc(SCC(=O)NCC2CCCO2)c2c3c(sc2n1)CCC3 (configuration not stated)	6009	6	2	3.3	16	1	-6
CCN1CCCC1CNC(=O)C(NC(=O)C1CCC(C)CC1)C(C)C (configuration not stated)	15851	4	2	0.1	-3	8	-13
CC(SCC(=O)NC(C)C1CC2CCC1C2)C(=O)O (configuration not stated)	2651	-8	1	-1.1	-3	2	-14
Cc1ccc(C(C)(C)NC(=O)C2CCC(=O)N(CCCN3CCOCC3)C2)cc1 (configuration not stated)	5352	10	2	3.5	6	8	-14
CCCNC(=O)c1cc2nc(-c3ccccc3)cc(C(F)(F)F)n2n1	10737	-4	1	-0.4	2	18	14
Cc1nn(Cc2ccccc2Cl)c(C)c1C(=O)NCCN1C(=O)S/C(=C\c2ccccc2)C1=O	2010	2	-1	5.5	10	-4	-22
Cn1c(=O)c(=O)n(C)c2cc(S(=O)(=O)Nc3ccc(OC(F)(F)F)cc3)ccc21	8175	-4	18	1.7	11	4	-20
CC(=NNC(=O)c1ccco1)c1ccc(NC(=O)C(F)(F)F)cc1	·	·	1	-1.6	2	-1	·
COc1ccccc1NS(=O)(=O)c1ccc(C(=O)NCC2(N(C)C)CCCCC2)cc1	?	-3	7	2.7	5	8	-78
CC(C)C(=O)N1CCN(c2ccccc2NC(=O)c2ccc(C#N)cc2F)CC1	5061	12	3	3.7	-13	-16	-27
CCOC(=O)C1=C(Nc2ccc(Cl)cc2)OCC1=O	4533	-2	3	-1.0	-9	-3	-14
COc1ccc(CC(=O)Nc2c(C(=O)N3CCN(c4ccccc4OC)CC3)oc3ccccc23)cc1OC	5774	-2	-1	-0.1	0	17	-1
CCOC(=O)c1cc(CC)sc1/N=C/C1C(=O)CCCC1=O	5036	-5	·	·	·	·	-25
OC(CCCC(O)c1ccccc1)c1ccccc1 (configuration not stated)	4244	·	7	2.1	·	·	-12
Cc1ccc(C)c(N(CC(=O)NC2CCCCC2)C(=O)CNC(=O)c2ccco2)c1	5298	2	2	5.4	5	4	-12
Cn1c(=O)[nH]c(=O)c2c1nc(N1CCOCC1)n2CC(=O)c1ccccc1	3948	-8	-66	10.0	14	11	-13
CCOc1ccc2nc(N/C(N)=N/S(C)(=O)=O)nc(C)c2c1	2461	-5	-5	2.1	0	2	-13
CCc1ccc(N2CC(C(=O)NCc3ccco3)CC2=O)cc1 (configuration not stated)	3096	-1	0	6.7	0	4	-6

Given bar-delimited: entries from further up
Structure | Autofluor counter | BJeLR viability | ugtP null kill | RN4220 kill | Mtb hypoxia rep | Mtb hypoxia rep growth | PrP UTR inh
CC(SCC(=O)NC(C)C1CC2CCC1C2)C(=O)O (configuration not stated) | 2651 | -8 | 1 | -1.1 | -3 | 2 | -14
Cc1ccc(C(C)(C)NC(=O)C2CCC(=O)N(CCCN3CCOCC3)C2)cc1 (configuration not stated) | 5352 | 10 | 2 | 3.5 | 6 | 8 | -14
CCCNC(=O)c1cc2nc(-c3ccccc3)cc(C(F)(F)F)n2n1 | 10737 | -4 | 1 | -0.4 | 2 | 18 | 14
Cc1nn(Cc2ccccc2Cl)c(C)c1C(=O)NCCN1C(=O)S/C(=C\c2ccccc2)C1=O | 2010 | 2 | -1 | 5.5 | 10 | -4 | -22
Cn1c(=O)c(=O)n(C)c2cc(S(=O)(=O)Nc3ccc(OC(F)(F)F)cc3)ccc21 | 8175 | -4 | 18 | 1.7 | 11 | 4 | -20
CC(=NNC(=O)c1ccco1)c1ccc(NC(=O)C(F)(F)F)cc1 | · | · | 1 | -1.6 | 2 | -1 | ·
COc1ccccc1NS(=O)(=O)c1ccc(C(=O)NCC2(N(C)C)CCCCC2)cc1 | ? | -3 | 7 | 2.7 | 5 | 8 | -78
CC(C)C(=O)N1CCN(c2ccccc2NC(=O)c2ccc(C#N)cc2F)CC1 | 5061 | 12 | 3 | 3.7 | -13 | -16 | -27
CCOC(=O)C1=C(Nc2ccc(Cl)cc2)OCC1=O | 4533 | -2 | 3 | -1.0 | -9 | -3 | -14
COc1ccc(CC(=O)Nc2c(C(=O)N3CCN(c4ccccc4OC)CC3)oc3ccccc23)cc1OC | 5774 | -2 | -1 | -0.1 | 0 | 17 | -1
CCOC(=O)c1cc(CC)sc1/N=C/C1C(=O)CCCC1=O | 5036 | -5 | · | · | · | · | -25
OC(CCCC(O)c1ccccc1)c1ccccc1 (configuration not stated) | 4244 | · | 7 | 2.1 | · | · | -12
Cc1ccc(C)c(N(CC(=O)NC2CCCCC2)C(=O)CNC(=O)c2ccco2)c1 | 5298 | 2 | 2 | 5.4 | 5 | 4 | -12
Cn1c(=O)[nH]c(=O)c2c1nc(N1CCOCC1)n2CC(=O)c1ccccc1 | 3948 | -8 | -66 | 10.0 | 14 | 11 | -13
CCOc1ccc2nc(N/C(N)=N/S(C)(=O)=O)nc(C)c2c1 | 2461 | -5 | -5 | 2.1 | 0 | 2 | -13
CCc1ccc(N2CC(C(=O)NCc3ccco3)CC2=O)cc1 (configuration not stated) | 3096 | -1 | 0 | 6.7 | 0 | 4 | -6

Next section.
SMILES	Autofluor counter	BJeLR viability	ugtP null kill	RN4220 kill	Mtb hypoxia rep	Mtb hypoxia rep growth	PrP UTR inh
CCc1ccccc1NC(=O)CCC(=O)Nc1nnc(C(C)C)s1	4202	-4	18	7.2	4	-5	-14
COCCNC(=O)c1cc(-c2ccccc2)nn1CC1CC(c2cccnc2)=NO1 (configuration not stated)	2836	1	-2	3.4	2	-6	-12
CCN1CCCC1CNC(=O)Cn1nc(C)n2nc(-c3ccccc3)cc2c1=O (configuration not stated)	6001	-11	6	2.8	-4	-3	-10
Cc1cc(Cl)ccc1OCC(=O)NCCCn1ccnc1	2566	-17	7	-2.9	2	10	-28
Cc1ccc2nc(NC(=O)CSc3nc4ccccc4o3)sc2c1	9245	7	17	-7.6	5	4	-12
O=c1cc(-c2ccccc2)nc2cc(-c3ccc(F)cc3)[nH]n12	3853	4	-14	-2.3	-1	0	-15
COc1ccc(/C=N/NC(=O)CNC(=O)C2COc3ccccc3O2)cc1OC (configuration not stated)	2250	-2	·	·	·	·	-8
COc1ccc(C=NNC(=O)CCNc2n[nH]c(=O)[nH]c2=O)c(OC)c1	·	·	0	3.5	8	-5	·
Cc1ccc(S(=O)(=O)N/N=C/c2cccc3nccnc23)cc1	4196	-9	·	·	·	·	-3
O=C(CCN1CCCCC1)Nc1ccc(Cl)cc1C(=O)c1ccccc1	4609	5	9	1.6	-9	9	-43
O=S1(=O)CCOCC(Cc2ccccc2)N1Cc1cccc(C(F)(F)F)c1 (configuration not stated)	·	·	-23	8.3	8	10	·
CC1CCCC(NC(=O)COC(=O)Cc2ccc(Br)cc2)C1C (configuration not stated)	4667	2	-3	4.4	2	16	-36
Cn1c(=O)[nH]c(=O)c2c1nc(NCc1ccccc1)n2Cc1ccc(F)cc1	3691	-4	7	1.3	11	-1	-10

Assay outcomes (PubChem BioAssay)
